Assay outcomes deposited in PubChem by National Center for Advancing Translational Sciences (NCATS).
miR-21 FLuc = qHTS Assay for Modulators of miRNAs and/orActivators of miR-21 | HeLa miR-21 FLuc reporter, luciferase, 48 h | Potency, µM (titrated, usually from 38.3 µM), for inactives: at the highest dose reporter change, positive = more light | 340,000 tested, under 10 active; active = well fitted rising curve with a large enough effect; inconclusive = small, poorly fitted or top-dose-only effect; inactive = no such curve, though single readings can be large or run the other way;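 also: % of control where 0% means no effect; miR-21 action dims this reporter so a rising signal means less miR-21 action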
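Compounds were titrated across several concentrations (up to approximately 40 uM) and incubated 48 hours with HeLa miR-21-FLuc reporter cells (miR-21 target sequence downstream of FLuc, endogenous miR-21). Readout was firefly luciferase luminescence after lytic detection reagent.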
* marks the source's active call; other numbers are inactive results; ? = inconclusive. The list is partial; count on the stated rates, not on these rows.

| Structure | miR-21 FLuc |
| --- | --- |
| O=C(c1cnc(N2CCOCC2)c2ccccc12)N1CCN(c2ccc(F)cc2)CC1 | 9.8% |
| COc1ccc(S(=O)(=O)NCc2ccccc2)cc1Br | 1.0% |
| CC(=O)Nc1ccc(NC(=O)CN2C(=O)CCc3cc(S(=O)(=O)N4CCCCC4)ccc32)cc1 | -6.6% |
| O=C(CCCCn1c(=O)c2ccccc2n(Cc2cccc(F)c2)c1=O)NCc1ccc2c(c1)OCO2 | 5.2% |
| COc1ccc(NC(=O)CCS(=O)(=O)c2nc(-c3ccc4c(c3)OCO4)cc(C(F)(F)F)n2)cc1OC | -4.1% |
| O=C(NCc1ccccc1Cl)c1nnc(Cc2ccc(Cl)cc2)o1 | 5.5% |
| CCOc1ccc(-c2csc(-c3c(N)c(C(=O)c4ccc5c(c4)OCO5)n4ccccc34)n2)cc1 | -7.4% |
| CCCCC(=O)Nc1ccc2nc(SCC(=O)N3CCOCC3)sc2c1 | -3.8% |
| COc1ccc(C(=O)NCc2ccc3c(c2)CCN3C(=O)c2ccc(F)cc2)cc1 | 16.7% |
| COc1ccc(CCNC(=O)C(C)n2c(=O)cc(C(F)(F)F)c3c(C)nn(C)c32)cc1OC (stereo not given) | -6.4% |
| Cc1oc(-c2ccc(C(=O)NCCC(C)C)cc2)nc1CN1CCc2ccccc21 | 13.5% |
| COc1ccc(Cn2c(=O)[nH]c3cc(C(=O)N4CCN(c5cc(C)ccc5C)CC4)ccc3c2=O)cc1 | 20.8% |
| Cc1ccccc1OCCn1c(-c2ccc(Cl)cc2)nc2ccccc2c1=O | -2.8% |
| CCC(=O)N1CCc2cc(Br)cc(S(=O)(=O)N3CCCC(C(=O)Nc4cccc(Cl)c4C)C3)c21 (stereo not given) | -6.0% |
| Cc1ccc(C(C)C)c(OCc2ccc(C(=O)Nc3ccc(S(N)(=O)=O)cc3C)o2)c1 | 27.1% |
| CCCNC(=O)CCNS(=O)(=O)c1ccc2c(c1)c(=O)n(C)c(=O)n2C | 0.3% |
| COc1cccc(-c2[nH]c3c(c2-c2c(-n4cccc4)n(C)c(=O)[nH]c2=O)c(=O)[nH]c(=O)n3C)c1 | -1.4% |
| CCCNC(=O)C1CCC(Cn2c(=O)c3sccc3n(CC(=O)N3CCCC(C)C3)c2=O)CC1 (stereo not given) | -0.1% |
| COc1ccccc1CCNC(=O)Cc1c(C)c2cc3c(C(C)(C)C)coc3c(C)c2oc1=O | -0.8% |
| CCc1ccc2oc(C(=O)Nc3sc4c(c3C(=O)NC)CCCC4)cc(=O)c2c1 | -0.8% |
| COc1cccc(CNC(=O)C(=O)NCC(c2ccco2)S(=O)(=O)c2cccs2)c1 (stereo not given) | 0.6% |
| CCN(CCCNC(=O)c1cc2cc3ccc(OC)cc3nc2s1)c1cccc(C)c1 | -18.9% |
| CCc1cccc(C)c1NC(=O)c1nc2ccccc2nc1N1CCCCC1 | -0.3% |
| Clc1ccc(-c2nnn3c2nc(NCc2ccc4c(c2)OCO4)c2ccccc23)cc1 | -8.4% |
| CCCn1c2ccccc2c2cnn(CC(=O)NCC3CCN(Cc4ccc(C)cc4)CC3)c(=O)c21 | 13.7% |
| O=C(CN1C(=O)c2cccc3cccc1c23)Nc1cccc(F)c1 | -20.0% |
| O=C(Nc1ccc(Cl)c(Cl)c1)N1CCC(c2ccccc2)C1 (stereo not given) | -42.3% |
| O=C(NCc1ccccc1)C1CCN(S(=O)(=O)c2ccc3c(c2)CCCN3C(=O)C2CCC2)CC1 | 14.0% |
| CCSc1oc(-c2ccc(F)cc2)nc1S(=O)(=O)c1ccc(C)cc1 | -1.6% |
| Cc1cc(C)c(NC(=O)c2cc3sc(Cl)cc3n2C)c(C)c1 | 0.3% |

(continued)
| Structure | miR-21 FLuc |
| --- | --- |
| COc1ccc(NC(=O)CC2C(=O)N(c3ccccc3)C(=O)N2Cc2cccnc2)cc1 (stereo not given) | -2.2% |
| CC(=O)c1ccc(NC(=O)CSc2nc(-c3cccc(F)c3)nc3c2c(=O)n(C)c(=O)n3C)cc1 | -4.4% |
| Cc1ccc(C)c(S(=O)(=O)NCC(c2ccc(N(C)C)cc2)N2CCOCC2)c1 (stereo not given) | -4.8% |
| CCc1nn(CC(=O)N2CCN(c3ccc(OC)cc3)CC2)c(=O)c2cc3sccc3n12 | 2.0% |
| O=C(NCc1ccccc1Cl)c1cc2c(s1)-c1ccccc1SC2 | -32.2% |
| COc1ccc(-c2c(C)c3ccc(O)c(CN4CCN(CCO)CC4)c3oc2=O)cc1OC | 6.0% |
| CC(C)CCNC(=O)C1CCN(C(=O)c2cc3sccc3n2Cc2ccc(Cl)cc2)CC1 | ? |
| Clc1ccccc1-c1nnc(-c2ccccc2CNc2ccc(Br)cc2)o1 | -16.7% |
| Cc1nc2nc(SCC(=O)NCCc3ccc(Cl)cc3)nn2c(C)c1Cc1c(F)cccc1Cl | 0.1% |
| COc1cccc(CNc2ncnc3onc(-c4ccc(F)cc4)c23)c1 | 4.4% |
| COc1ccccc1C(=O)Nc1ccc(C(=O)OCc2cc(=O)n3c4c(sc3n2)CCCC4)cc1 | -0.7% |
| Cc1ccc(C)n1-c1nnc(N2CCCC(C(=O)NCc3ccc(F)cc3)C2)s1 (stereo not given) | 7.9% |
| CCc1ccc(NC(=O)Cn2c(=O)oc3cc(S(=O)(=O)NCc4ccccc4)ccc32)cc1 | -6.2% |
| Cc1cc(=O)n2[nH]c(NCc3ccc(F)cc3)nc2n1 | -0.7% |
| CCOC(=O)c1c(C)[nH]c(CCC(=O)Nc2ccccc2C(=O)OC)c1C | 1.4% |
| O=C(CSc1nc2ccccc2nc1Cc1ccccc1)Nc1ccc2c(c1)OCO2 | 6.4% |
| COc1ccc2nc(N(Cc3cccnc3)C(=O)C3COc4ccccc4O3)sc2c1 (stereo not given) | -30.4% |
| COc1ccc2cc(S(=O)(=O)c3ccccc3F)c(=O)oc2c1 | 1.5% |
| CCN1CCN(c2cc(C)c3cc(NC(=O)c4cc(Br)ccc4Cl)ccc3n2)CC1 | 23.1% |
| CC1CCN(c2oc(-c3ccc(COc4ccc(Cl)cc4)o3)nc2C#N)CC1 | -2.0% |
| CC(=O)C1=C(c2ccc(Cl)c(Cl)c2)N(C(C)=O)n2c(nnc2C2CCCCC2)S1 | -0.3% |
| Cc1ccccc1NC(=O)CSc1ncc2c(n1)-c1ccccc1N(C)S2(=O)=O | 0.4% |
| O=C(CSc1nc2ccccc2nc1Cc1ccccc1)N1CCCc2ccccc21 | 0.0% |
| O=C(NCCc1ccc(Cl)cc1)c1ccc2nc(CCc3ccccc3)oc2c1 | -13.6% |
| O=c1c(N2CCc3ccccc3C2)csc2ccc(F)cc12 | -15.3% |
| C[C@@H]1C=CC(=O)O[C@@H]1c1ccc(C(F)(F)F)cc1 | ? |
| CCc1ccc(-c2nc3c(c(SCc4ccc(F)cc4)n2)Cc2c(CO)cnc(C)c2O3)cc1 | -1.6% |
| CCc1ccc(NC(=O)Cn2c(=O)n(CCCC(=O)NCCc3ccc(OC)c(OC)c3)c(=O)c3ccccc32)cc1 | 0.6% |
| CCN(CC)CCCNC(=O)c1c(C)oc2ncn(CC(C)C)c(=O)c12 | 1.9% |
| CCc1ccc(-n2c(CCC(=O)O)ccc2-c2cccs2)cc1 | -22.6% |

The results go on:
| Structure | miR-21 FLuc |
| --- | --- |
| COc1ccccc1Cc1nc2ccccc2nc1SCC(=O)NCCc1ccccc1 | -1.4% |
| Cc1c2cnn(-c3ccccc3)c(=O)c2c(C)n1C(C)C(=O)NCc1cccc(Br)c1 (stereo not given) | ? |
| CCOc1ccc(CCNC(=O)c2cnc3sc(N4CCCCCC4)nn3c2=O)cc1 | -7.4% |
| COc1ccccc1NC(=O)Cn1c(=O)n(Cc2cccs2)c(=O)c2cccnc21 | -11.5% |
| CCc1ccc(NC(=O)Cn2c(=O)n(CCCCC(=O)NCc3ccccc3Cl)c(=O)c3ccccc32)cc1 | 0.1% |
| CCCCCSc1nnc(-c2ccc(Br)cc2)o1 | -25.5% |
| CCOC(=O)N1CCC2(CC1)OC(=O)C(C)=C2C(=O)NCc1cccc(OC)c1 | -6.7% |
| COc1cc(/C=N/NC(=O)c2cc3c(ccc4ccccc43)o2)cc(OC)c1O | -8.2% |
| CCOc1ccc(OCc2ccc(C(=O)Nc3cc(OC)c(OC)c(OC)c3)o2)cc1 | 5.6% |
| CCC(Sc1nc2ccncc2[nH]1)C(=O)Nc1ccc(F)cc1 (stereo not given) | 11.6% |
| COc1ccc2c(c1)CC(C(=O)Nc1cccc(C)c1C)CO2 (stereo not given) | -4.7% |
| CCN(C(=O)Cn1cnc2c1c(=O)n(C)c(=O)n2C)c1ccccc1C | -0.9% |
| Cc1ccccc1OCC(=O)Nc1ccc2nc(SCC(=O)N(C)c3ccccc3)sc2c1 | 22.6% |
| Cc1ccc(NC(=O)Cn2c(-c3nonc3N)nc3ccccc32)cc1Cl | -4.0% |
| COc1ccc(-n2c(-c3ccco3)nc3c(cnn3-c3ccccc3Cl)c2=O)cc1 | 8.4% |
| CCOc1ccc(CNCc2c(C(=O)O)n(Cc3ccccc3C)c3cc(OC)ccc23)cc1OC | 0.4% |
| COCCNC(=O)C1CCN(C(=O)c2cc3sccc3n2Cc2ccc(Cl)cc2)CC1 | ? |
| Cc1ccccc1CNC(=O)C(C)n1nc(C)n2c(cc3occc32)c1=O (stereo not given) | -2.7% |
| Cc1ccc(S(=O)(=O)NCCc2nnc3ccc(SCC(=O)Nc4ccc(F)cc4F)nn23)cc1 | -1.5% |
| Cc1ccc(C)c(N2CCN(C3=C(c4ccccc4)C(=O)c4ccccc43)CC2)c1 | -1.6% |
| CC(Oc1ccccc1F)C(=O)N1CCC(c2nc3ccccc3o2)CC1 (stereo not given) | 2.7% |
| CCOc1ccccc1C(=O)Nc1cccc2ccc(C)nc12 | -3.9% |
| COc1cccc(NC(=O)C2CCCN(c3ncnc4onc(C)c34)C2)c1 (stereo not given) | 6.5% |
| O=C(NCc1ccccc1Br)c1ccc(-n2cnc3cccnc32)cc1 | 2.4% |
| COc1ccc(-c2nc(SCC(=O)N3CCC(C)CC3)n[nH]2)cc1 | -6.3% |
| COc1ccc(NC(=O)Cn2ncc3c([nH]c4ccccc43)c2=O)cc1Cl | -2.2% |
| Cc1ccc(F)cc1NC(=O)CCc1c(C)nn(-c2ccc(N3CCCC3)nn2)c1C | -4.9% |
| COc1cccc(C(=O)Nc2cccc(OCc3cc(=O)n4c5c(sc4n3)CCCC5)c2)c1 | -37.3% |
| CCc1ccc(NC(=O)CSc2c(C)cnc3c2c(=O)n(C)c(=O)n3C)cc1 | -0.1% |
| CC(=O)Nc1ccc(NC(=O)c2c(-c3ccccc3)noc2C)cc1 | 4.2% |

New compounds follow:
| Structure | miR-21 FLuc |
| --- | --- |
| COc1ccccc1-c1nc(S(=O)(=O)c2ccc(Cl)cc2)c(N2CCCCCC2)o1 | -3.3% |
| COc1cccc(NC(=O)CN2C(=O)c3cccc4cccc2c34)c1 | 0.5% |
| CCOC(=O)c1ccccc1NC(=O)CSc1nnc(CC)n2c1cc1occc12 | 2.3% |
| CCN(CC)CCCNc1oc(/C=C/c2ccc(OC)c(OC)c2)nc1C#N | -1.0% |
| CN(Cc1ccccc1)C(=O)c1ccc2c(c1)N(Cc1ccccc1F)C(=O)c1ccccc1S2(=O)=O | 5.8% |
| Cc1ccccc1CN1C(=O)c2ccccc2S(=O)c2ccc(C(=O)NCc3ccc(Cl)cc3)cc21 (stereo not given) | -0.3% |
| CCOC(=O)c1c(N)n(-c2ccc(CC)cc2)c2nc3ccccc3nc12 | -11.2% |
| Cc1ccc(NC(=O)Nc2ccc3c(c2)N(C)C(=O)c2ccccc2S3)c(C)c1 | 1.5% |
| Cc1ccccc1NC(=O)c1c(NC(=O)c2ccco2)sc2c1CCC(C(C)(C)C)C2 (stereo not given) | -2.1% |
| CC1CCc2c(sc3nnn(Cc4ccccc4Cl)c(=O)c23)C1 (stereo not given) | -6.0% |
| COc1ccc(S(=O)(=O)Nc2cc(-c3cn4cccc(C)c4n3)ccc2C)cc1C | -8.4% |
| Cc1ccc(CCNC(=O)c2cc(Nc3ccc(C)c(C)c3)nc3ccccc23)cc1 | 4.9% |
| Cc1ccccc1NC(=O)C1CCN(S(=O)(=O)c2ccccc2)CC1 | 0.2% |
| CCOc1ccc(S(=O)(=O)Nc2cccc(OC)c2)c2cccnc12 | 5.1% |
| Cn1c(SCC(=O)N2CCCc3ccccc32)ncc(C(=O)Nc2ccc(F)cc2)c1=O | -2.6% |
| Cc1cccc(N2CCN(C(=O)C3CCN(C(=O)c4cc5sccc5n4C)CC3)CC2C)c1 (stereo not given) | ? |
| CCOc1ccc(NC(=O)N2CCN(C(=O)c3nsc4ccccc34)CC2)cc1 | 0.0% |
| COc1ccc(Cl)cc1NC(=O)Cn1ccn(Cc2ccc(C)cc2)c(=O)c1=O | -64.8% |
| COc1ccc2c(CNCC(C)c3ccccc3)c(C(=O)O)n(Cc3ccc(F)cc3Cl)c2c1 (stereo not given) | 1.9% |
| Cc1cccc(N2CCN(C(=O)CSCc3ccc(F)cc3)CC2)c1C | -12.6% |
| CCOc1ccccc1C(=O)N1CC(=O)Nc2ccc(C)cc2C1c1ccccc1 (stereo not given) | ? |
| COCCNC(=O)CSc1nc(-c2cc(OC)c(OC)c(OC)c2)[nH]c1-c1ccc(Cl)cc1 | 15.4% |
| CCN(CC)c1ccc(NC(=O)c2cccn2-c2nnc(N3CCCCC3)s2)c(C)c1 | 22.3% |
| COc1ccc(NC(=O)CC2C(=O)N(c3cccc(C)c3)C(=O)N2Cc2cccnc2)cc1 (stereo not given) | -1.7% |
| O=C(NCc1ccccc1Cl)c1cnc(N2CCCCC2)c2ccccc12 | 24.4% |

Sorted by value in miR-21 FLuc (highest first): three of the compounds above.
| Structure | miR-21 FLuc |
| --- | --- |
| CCN(CC)c1ccc(NC(=O)c2cccn2-c2nnc(N3CCCCC3)s2)c(C)c1 | 22.3% |
| CN(Cc1ccccc1)C(=O)c1ccc2c(c1)N(Cc1ccccc1F)C(=O)c1ccccc1S2(=O)=O | 5.8% |
| CC1CCc2c(sc3nnn(Cc4ccccc4Cl)c(=O)c23)C1 (stereo not given) | -6.0% |
